Screens deposited in PubChem by Broad Institute.
MLL AF4-AF9 inh – MLL-AF4/AF9 protein interaction inhibition. AlphaScreen, biotin-AF4 peptide binding to FLAG-AF9. inhibition, % at 10 µM. hit rate 0.47% among 350,000;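 active = every replicate reaching a set inhibition limit, whatever the replicate mean, cut at about 25% in these data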;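 note: 0% = plate neutral control median and 100% = total signal loss; the record names both 10 and 1 µM as test concentration; the first replicate is given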
Target sequence (P42568 whole entry, looked up): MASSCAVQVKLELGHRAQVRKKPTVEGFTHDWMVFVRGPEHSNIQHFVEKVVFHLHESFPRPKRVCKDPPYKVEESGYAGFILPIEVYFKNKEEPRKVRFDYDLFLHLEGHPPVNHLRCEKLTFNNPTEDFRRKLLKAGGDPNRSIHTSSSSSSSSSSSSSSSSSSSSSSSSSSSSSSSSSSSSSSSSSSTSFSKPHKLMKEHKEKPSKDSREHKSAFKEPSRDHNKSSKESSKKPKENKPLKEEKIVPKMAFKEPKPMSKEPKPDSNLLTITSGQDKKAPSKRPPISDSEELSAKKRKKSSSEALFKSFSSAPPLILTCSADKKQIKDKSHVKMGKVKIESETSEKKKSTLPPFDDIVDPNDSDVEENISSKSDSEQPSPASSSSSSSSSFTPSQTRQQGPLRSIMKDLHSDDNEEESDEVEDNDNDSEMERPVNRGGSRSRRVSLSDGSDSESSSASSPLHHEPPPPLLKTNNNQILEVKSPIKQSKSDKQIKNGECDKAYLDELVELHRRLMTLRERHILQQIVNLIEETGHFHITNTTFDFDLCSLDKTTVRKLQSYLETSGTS
* hit, by the source's call; & = joins results of further samples.

SMILES	MLL AF4-AF9 inh
C[C@H](CO)N1C[C@H](C)[C@H](CN(C)Cc2ccc(-c3ccccc3)cc2)Oc2c(NS(C)(=O)=O)cccc2C1=O	2.0
COc1ccc2c3c([nH]c2c1)[C@@H](CO)N(C(=O)Nc1ccccc1F)CC31CN(C(C)=O)C1	2.3
C[C@H](O)C#Cc1ccc2c(c1)O[C@H](CN(C)Cc1ccncc1)[C@H](C)CN([C@@H](C)CO)S2(=O)=O	-1.0
CN(C)CC#Cc1ccc([C@@H]2[C@@H](CO)N3CCCCN(C(=O)NC4CCCC4)C[C@@H]23)cc1	-2.0
CC(C)NC(=O)N(C)C[C@@H]1Oc2ccc(NS(C)(=O)=O)cc2C(=O)N([C@H](C)CO)C[C@@H]1C	-3.5
O=C(N[C@H]1CC[C@H](CCNS(=O)(=O)c2ccc(F)cc2)O[C@@H]1CO)C1CCC1	-0.7
Cc1noc(C)c1NC(=O)N(C)C[C@@H]1Oc2ccc(NC(=O)CCN3CCOCC3)cc2CC(=O)N([C@@H](C)CO)C[C@H]1C	-11
COc1ccc(CN2CC3(CN(C(=O)Cc4ccccc4)C3)c3c([nH]c4cc(OC)ccc34)[C@@H]2CO)cc1	3.4
CC(=O)c1ccc(S(=O)(=O)N2CCN(CC(=O)Nc3ccnn3C3CCCC3)CC2)cc1	0.9
C[C@@H]1CN([C@@H](C)CO)C(=O)Cc2cc(NC(=O)Cc3ccccc3)ccc2O[C@@H]1CN(C)Cc1ccc(Oc2ccccc2)cc1	-2.4
C[C@@H]1CCCCO[C@@H](CN(C)S(=O)(=O)c2cccs2)[C@@H](C)CN([C@H](C)CO)C(=O)c2cc(NS(C)(=O)=O)ccc2O1	0.9
C[C@H](CO)N1C[C@H](C)[C@H](CN(C)C(=O)CN(C)C)Oc2cc(C#Cc3ccc(F)cc3)ccc2S1(=O)=O	20
C[C@H]1CN([C@@H](C)CO)C(=O)c2cc(-c3ccccc3)cnc2O[C@H]1CN(C)C(=O)C1CCCCC1	-2.4
C[C@@H]1CN([C@H](C)CO)C(=O)c2cc(NS(=O)(=O)c3ccc(F)cc3)ccc2O[C@@H]1CN(C)Cc1ccc2c(c1)OCO2	1.7
COc1ccc(Nc2nc(NCc3cccs3)nc3ccsc23)cc1OC	14

A different layout for some results above.
> C[C@H]1CN([C@@H](C)CO)C(=O)c2cc(-c3ccccc3)cnc2O[C@H]1CN(C)C(=O)C1CCCCC1
  MLL AF4-AF9 inh = -2.4
> COc1ccc(CN2CC3(CN(C(=O)Cc4ccccc4)C3)c3c([nH]c4cc(OC)ccc34)[C@@H]2CO)cc1
  MLL AF4-AF9 inh = 3.4
> CC(C)NC(=O)N(C)C[C@@H]1Oc2ccc(NS(C)(=O)=O)cc2C(=O)N([C@H](C)CO)C[C@@H]1C
  MLL AF4-AF9 inh = -3.5
> CC(=O)c1ccc(S(=O)(=O)N2CCN(CC(=O)Nc3ccnn3C3CCCC3)CC2)cc1
  MLL AF4-AF9 inh = 0.9

Carrying on:
SMILES	MLL AF4-AF9 inh
CC(=O)N1CC[C@@H]2[C@@H](CO)N(C)c3ccc(-c4ccccc4)cc3[C@@H]21	4.8
C[C@H](CO)N1C[C@H](C)[C@@H](CN(C)Cc2ccc(-c3ccccc3)cc2)Oc2ccc(NS(=O)(=O)c3cccs3)cc2C1=O	1.3
CCCNC(=O)C[C@@H]1CC[C@H]2[C@@H](COc3ccc(NC(=O)CCC)cc3C(=O)N2C)O1	-0.9
CC(C)NC(=O)N(C)C[C@H]1Oc2ccc(NC(=O)CCCN(C)C)cc2C(=O)N([C@H](C)CO)C[C@H]1C	0.1
Cc1ccccc1S(=O)(=O)NCC[C@H]1CC[C@H](NC(=O)C2CCOCC2)[C@@H](CO)O1	-2.1
Cc1noc(C)c1NC(=O)N(C)C[C@H]1Oc2c(NC(=O)C3CC3)cccc2C(=O)N([C@@H](C)CO)C[C@H]1C	-3.3
CCC(Oc1ccccc1)C(=O)OCC(=O)Nc1sccc1C(N)=O (stereo not given)	-8.3
CO[C@@H](CN(C)S(=O)(=O)c1ccc(F)cc1)[C@@H](C)CN(Cc1ccccc1Cl)[C@H](C)CO	0.5
CCCNC(=O)N(C)C[C@@H]1Oc2cc(C#Cc3ccccn3)ccc2S(=O)(=O)N([C@@H](C)CO)C[C@@H]1C	-1.5
COCC(=O)N1C[C@@H](C)[C@H](OC)CN(C)C(=O)c2cc(NC(=O)c3cc(C)on3)ccc2OC[C@@H]1C	-1.1
COc1cccc(CNC(=O)C[C@@H]2C=C[C@@H](NC(=O)C3CCOCC3)[C@@H](CO)O2)c1	-1.5
O=S1(=O)C[C@H](N2CCOCC2)[C@@H](COCc2ccccc2)N1	0.3
COc1ccccc1NC(=O)N1CCCCN2[C@H](CO)[C@@H](c3ccc(C#CC4CC4)cc3)[C@@H]2C1	6.2
CC(C)[C@@H](C)NC(=O)N(C)C[C@H]1OCc2ccccc2-c2ccccc2C(=O)N([C@@H](C)CO)C[C@@H]1C	-4.3
C[C@@H]1CCCCO[C@H](CN(C)Cc2ccc(Cl)c(Cl)c2)[C@H](C)CN([C@@H](C)CO)C(=O)c2cc(NC(=O)CCC(F)(F)F)ccc2O1	-1.7
C[C@@H]1CCCCO[C@@H](CN(C)C(=O)c2ccncc2)[C@@H](C)CN([C@H](C)CO)C(=O)c2cc(NC(=O)c3ccncc3)ccc2O1	-0.5
COc1ccc(S(=O)(=O)N[C@H]2C=C[C@@H](CC(=O)N3CCN(c4ccccc4)CC3)O[C@@H]2CO)cc1	-0.2
COc1cccc(C(C)(O)c2nc(-c3csc4ccccc34)cs2)c1 (stereo not given)	-2.1
C[C@@H]1CCCCO[C@@H](CN(C)C(=O)Nc2ccc(C(F)(F)F)cc2)[C@H](C)CN([C@H](C)CO)C(=O)c2cc(NS(=O)(=O)c3cccs3)ccc2O1	0.2
Cc1cc(N2CCN(C(C(=O)NC3CCCC3)C(C)C)CC2)c2ccccc2n1 (stereo not given)	-3.1
CCCNC(=O)C1(C)CCCN(Cc2cc(-c3ccccc3)nn2C)C1 (stereo not given)	-2.7
CCCCCCCCN1C(=O)[C@@H](CC(=O)NCCCC)C[C@@]2(C(=O)OC)C1=C[C@H](C(C)(C)C)O[C@@H]2C	0.4
N#C[C@H]1[C@@H](c2ccccc2C2=CCCC2)[C@H](CO)N1C(=O)C1CCOCC1	-6.5
COC(=O)c1cc2c(c3c4ccccc4n(S(=O)(=O)c4ccc(C)cc4)c13)C(=O)N(CC(C)C)C2	3.4
CN(C)CC(=O)N[C@@H]1CC[C@H](CCNC(=O)C2CCC2)O[C@@H]1CO	0.8
Cc1noc(C)c1NC(=O)N(C)C[C@@H]1Oc2ccc(NS(=O)(=O)c3cccs3)cc2C(=O)N([C@@H](C)CO)C[C@H]1C	-9.4
N#C[C@@H]1[C@@H](c2ccc(C3=CCCC3)cc2)[C@@H](CO)N1c1nc(-c2ccccc2)cs1	-3.9
CCNC(=O)C[C@H]1C=C[C@@H](NC(=O)NC2CCCCC2)[C@H](CO)O1	-2.8
CCS(=O)(=O)NCC[C@@H]1CC[C@H](NS(=O)(=O)c2ccccc2C)[C@H](CO)O1	-0.9
CN(C)C(=O)[C@H]1[C@H](CO)[C@H]2Cn3c(ccc(C4=CCCCC4)c3=O)[C@@H]1N2C	1.5
Cc1cccc(C)c1NC(=O)C(c1ccc(C#N)cc1)n1c(=O)c(-c2cc3ccccc3[nH]2)nc2ccccc21 (stereo not given)	-22
C[C@@H]1CN([C@@H](C)CO)C(=O)c2cccc(NC(=O)Nc3ccccc3)c2O[C@H]1CN(C)CC1CC1	-1.9
C[C@H]1CN([C@@H](C)CO)C(=O)c2cc(NS(=O)(=O)c3ccc(Cl)cc3)ccc2O[C@H]1CN(C)Cc1ccc2c(c1)OCO2	4.2
CC(=O)N1CC2(C1)[C@H](c1ccc(-c3cccc(F)c3)cc1)[C@H](CO)N2CC1CC1	-2.9
CCCCNC(=O)c1nc(-c2cnc(C)cn2)oc1-c1ccc(Cl)cc1	-0.6
C[C@@H]1CN([C@@H](C)CO)S(=O)(=O)c2ccc(-c3ccc(C#N)cc3)cc2O[C@H]1CN(C)Cc1cccc(F)c1	-1.1
C[C@@H](NC(=O)C[C@@H]1CC[C@H](NC(=O)C2CC2)[C@H](CO)O1)c1ccccc1	-0.7
C[C@@H]1CN([C@@H](C)CO)C(=O)Cc2cc(NC(=O)Nc3cccc4ccccc34)ccc2O[C@@H]1CN(C)Cc1ccc(C(=O)Nc2ccccc2N)cc1	-3.5
COc1ccc(CNC(=O)N(C)C[C@@H]2OCc3ccccc3-c3c(n(C)c4ccccc34)C(=O)N([C@@H](C)CO)C[C@H]2C)cc1	2.6
CC(C)NC(=O)Nc1ccc2c(c1)C(=O)N([C@@H](C)CO)C[C@H](C)[C@H](CN(C)S(=O)(=O)c1ccc(F)cc1)OCCCC[C@H](C)O2	2.3
C[C@H]1CN([C@@H](C)CO)C(=O)c2cccc(NC(=O)Nc3ccc(C(F)(F)F)cc3)c2O[C@H]1CN(C)CC1CC1	4.7
COCC(=O)N[C@H]1C=C[C@@H](CC(=O)NCc2ccccc2OC)O[C@@H]1CO	-0.9&-2.3
COc1ccccc1-c1ccc([C@H]2[C@@H](CO)N(C(=O)NC3CCCCC3)[C@H]2C#N)cc1	-1.8
CCS(=O)(=O)Nc1ccc2c(c1)C(=O)N(C)C[C@H](OC)[C@@H](C)CN(C(=O)NC(C)C)[C@@H](C)CO2	-1.8
CCCc1cnc(Nc2nc(C(N)Cc3ccc(OC)cc3)cs2)nc1 (stereo not given)	10
C[C@@H]1CCCCO[C@@H](CN(C)Cc2ccncc2)[C@H](C)CN([C@@H](C)CO)C(=O)c2cc(N(C)C)ccc2O1	-2.5
CN(C)CC(=O)N1[C@@H](CO)[C@@H](c2ccccc2)C12CN(Cc1cc(F)ccc1F)C2	3.2
CCCC#Cc1ccc2c(c1)O[C@H](CN(C)Cc1ccccn1)[C@@H](C)CN([C@H](C)CO)S2(=O)=O	0.3
C[C@H](CO)N1C[C@H](C)[C@H](CN(C)Cc2ccc(C(=O)O)cc2)Oc2ccc(NC(=O)Nc3ccc(C(F)(F)F)cc3)cc2CC1=O	-1.1
COc1ccc(NC(=O)Nc2ccc3c(c2)C(=O)N([C@H](C)CO)C[C@H](C)[C@@H](CN(C)C(=O)Nc2ccc(C(F)(F)F)cc2)OCCCC[C@H](C)O3)cc1	-10
CCCC(=O)N1CC2(C1)CN(C(=O)C1CC1)[C@@H](CO)c1[nH]c3cc(OC)ccc3c12	-1.7
C[C@@H]1CN([C@@H](C)CO)C(=O)CCCn2nncc2CO[C@H]1CN(C)Cc1ccccc1C(=O)O	-31
Cc1cc(C(=O)Nc2cccc3c2O[C@@H](CN(C)Cc2ccc(Cl)c(Cl)c2)[C@@H](C)CN([C@H](C)CO)C3=O)n(C)n1	0.8
CO[C@H]1CN(C)C(=O)c2cc(NC(=O)c3ccccc3)ccc2OC[C@@H](C)NC[C@H]1C	-5.1
C(=C\c1ccccc1)/CN1CCN(C(c2cccc3ccccc23)c2nnnn2Cc2ccccc2)CC1 (stereo not given)	1.7
CCN(C[C@H]1N[C@@H](CO)[C@@H]1c1ccc(-c2ccccc2)cc1)C(=O)COC	0.2
COc1ccc2c3c(n(C)c2c1)[C@H](CO)N(C(=O)NC(C)C)CC31CCN(Cc2nccs2)CC1	-2.6
O=C(Nc1cccc(Cl)c1)c1ccc2sc([C@H]3C[C@H](O)[C@@H](CO)O3)nc2c1	-1.9
C[C@@H]1CN([C@@H](C)CO)C(=O)c2cc(NS(=O)(=O)c3ccc(Cl)cc3)ccc2O[C@@H](C)CCCCO[C@@H]1CN(C)C(=O)Nc1ccc(F)cc1	-4.4
CC(=O)N1CC2(C1)[C@H](c1ccc(-c3ccc(C#N)cc3)cc1)[C@@H](CO)N2C(=O)C1CC1	-0.5
New compounds follow.
SMILES	MLL AF4-AF9 inh
CC(C)Oc1ccc(CN2CCC2(C)C(=O)Nc2ccc3c(c2)OCO3)cc1 (stereo not given)	-2.2
C[C@@H]1CCCCO[C@H](CN(C)S(=O)(=O)c2ccccc2)[C@@H](C)CN([C@@H](C)CO)C(=O)c2cc(NS(=O)(=O)c3ccccc3)ccc2O1	2.7
Cc1ccc(S(=O)(=O)N(C)C[C@H]2Oc3ccc(NS(C)(=O)=O)cc3C(=O)N([C@H](C)CO)C[C@H]2C)cc1	-2.6
CCCC1(c2ccsc2)NC(=O)NC1=O (stereo not given)	-1.8
Cc1ccccc1S(=O)(=O)N(C)C[C@H]1OCc2ccccc2-c2c(n(C)c3ccccc23)C(=O)N([C@@H](C)CO)C[C@@H]1C	0.3
O=C(NC1CCCCCC1)c1[nH]c(C(F)(F)F)nc1-c1ccccc1	-4.7
O=C(CN1CCOCC1)N[C@H]1CC[C@H](CCNC(=O)C2CCCC2)O[C@@H]1CO	-1.2
CN(Cc1cn(Cc2ccc(F)cc2)nn1)C1CN(Cc2cn(Cc3ccc(F)cc3)nn2)S(=O)(=O)C1 (stereo not given)	-1.1
O=C(C[C@H]1CC[C@@H]2[C@H](COC[C@H](O)CN2S(=O)(=O)c2cccc(Cl)c2)O1)N1CCOCC1	-3.4
C[C@@H]1CN([C@H](C)CO)C(=O)Cc2cc(NC(=O)CCC(F)(F)F)ccc2O[C@H]1CN(C)Cc1ccc(Cl)c(Cl)c1	-0.7
COc1ccc(S(=O)(=O)N2CCCCCC2)cc1NC(C)C(=O)Nc1ccc(NC(C)=O)cc1 (stereo not given)	1.4

As entered above:
Under MLL AF4-AF9 inh, `O=C(CN1CCOCC1)N[C@H]1CC[C@H](CCNC(=O)C2CCCC2)O[C@@H]1CO` has -1.2
Under MLL AF4-AF9 inh, `C[C@@H]1CN([C@H](C)CO)C(=O)Cc2cc(NC(=O)CCC(F)(F)F)ccc2O[C@H]1CN(C)Cc1ccc(Cl)c(Cl)c1` has -0.7
Under MLL AF4-AF9 inh, `COc1ccc(S(=O)(=O)N2CCCCCC2)cc1NC(C)C(=O)Nc1ccc(NC(C)=O)cc1` (stereo not given) has 1.4
Under MLL AF4-AF9 inh, `Cc1ccc(S(=O)(=O)N(C)C[C@H]2Oc3ccc(NS(C)(=O)=O)cc3C(=O)N([C@H](C)CO)C[C@H]2C)cc1` has -2.6
Under MLL AF4-AF9 inh, `Cc1ccccc1S(=O)(=O)N(C)C[C@H]1OCc2ccccc2-c2c(n(C)c3ccccc23)C(=O)N([C@@H](C)CO)C[C@@H]1C` has 0.3

Some of the compounds tested; rates above refer to the full screens.
